High-throughput results as filed in PubChem BioAssay.
D2 agonist: Beta-Arrestin HTS for Positive Allosteric Modulators of the Human D2 Dopamine Receptor: Agonists; DiscoveRx PathHunter D2 beta-arrestin, luminescence, 90 min; 100% = 57 uM dopamine signal; activation, % (concentration not given with the values); actives 0.084% (n = 360,000); AID 624465, 2012; in the data active = activation above about 40%; inconclusive = about 15% to 40%; inactive = below about 15%; also: compound concentration not given in the record; the text of the record calls up to 30% inactive
Target sequence (P14416 whole entry, looked up): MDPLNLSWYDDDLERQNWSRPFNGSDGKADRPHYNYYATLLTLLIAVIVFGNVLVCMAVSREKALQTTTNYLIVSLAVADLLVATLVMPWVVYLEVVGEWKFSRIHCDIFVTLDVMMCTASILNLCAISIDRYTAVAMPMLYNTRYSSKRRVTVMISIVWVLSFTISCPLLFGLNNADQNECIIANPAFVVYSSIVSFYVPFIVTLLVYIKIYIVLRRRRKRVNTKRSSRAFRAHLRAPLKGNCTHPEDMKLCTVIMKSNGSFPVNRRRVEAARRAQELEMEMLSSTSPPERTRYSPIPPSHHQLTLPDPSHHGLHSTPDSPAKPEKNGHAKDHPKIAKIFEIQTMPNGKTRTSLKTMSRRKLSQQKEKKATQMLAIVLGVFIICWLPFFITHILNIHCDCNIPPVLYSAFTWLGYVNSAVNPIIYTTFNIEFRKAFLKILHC
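DiscoveRx PathHunter D2 beta-arrestin cells (2,100/well) attached overnight, then compound-stimulated 90 min at 37 C in HBSS/10 mM HEPES/0.1% Tween-20 buffer; beta-galactosidase complementation read by luminescence after 1 h at ambient temperature. Dopamine 57 uM final (EC100) as control.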
Six1-Eya2 inh: qHTS Assay for Inhibitors of the Six1/Eya2 Interaction; actives 0.56% (n = 360,000); AlphaScreen GST-Six1/His-Eya2 binding, biochemical; hits give low values; control for the full effect not named in the record; Homeobox protein SIX1 (Homo sapiens) + Protein phosphatase EYA2 (Homo sapiens), …; activity change, % (test concentration not listed); in the data active = activity change below about -65%; inconclusive = about -30% to -65%; inactive = above about -30%; also: % is scaled to controls: 0 for no effect and ±100 for the full control effect; compound concentration not given in the record
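Six1/Eya2 binding was read as AlphaScreen signal after compounds were pinned into GST-Six1 plus His-tagged Eya2 (5X stock 250/500 nM) in pH 8.0 Tris/NaCl/TCEP buffer, beads added, then incubated 1 h, 37 C, dark.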
gsp antagonist: qHTS for Antagonists of gsp, the Etiologic Mutation Responsible for Fibrous Dysplasia/McCune-Albright Syndrome: qHTS | gsp-mutant cells, cAMP HTRF, 30 min; control for the full effect not named in the record | Potency, µM (series often up to 76.9 µM), without a hit: at the top dose activity change, negative = inhibition, actives largely listed as inhibitors | actives 0.4% (n = 340,000); active = falling curve of any shape with a large fitted effect; inconclusive = falling curve, mostly with a smaller effect; inactive = flat or rising curve; cell line not stated here;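 also: intracellular cAMP measured with PDE inhibitor Ro 20-1724 present during compound exposure; potency is read from the fitted curve at half-maximal effect; % is scaled to controls: 0 for no effect and ±100 for the full control effect; nearly all actives have a fitted effect of over 65% in size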
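Cells in G418 medium, seeded 16-24 h, 37C; buffer exchange to DPBS + 1 mM CaCl2, 0.5 mM MgCl2, 0.05% BSA; cpds in DMSO + […] (300 uM stock), 30 min 37C; HTRF cAMP detection.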
CtBP-E1A blk: qHTS Assay for Inhibitors of the CtBP/E1A Interaction; CtBP / adenovirus E1A interaction (AlphaScreen); AlphaScreen GST-E1A/His-CtBP binding, 1536-well; hits give low values; control for the full effect not named in the record; activity change, % (test concentration not listed); actives 0.49% (n = 340,000); in the data active means activity change below about -65%; inconclusive means about -30% to -65%; inactive means above about -30%; also: % is scaled to controls: 0 for no effect and ±100 for the full control effect; compound concentration not given in the record
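AlphaScreen with 125 nM GST-E1A and 125 nM His-CtBP (5X stocks) in Tris pH 8.0, 300 mM NaCl, BSA, Tween 20, TCEP. Compounds preincubated 2 h at 37 deg C, then glutathione donor/nickel acceptor beads added for 1 h at 37 deg C in dark.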
gsp agonist: qHTS for Agonist of gsp, the Etiologic Mutation Responsible for Fibrous Dysplasia/McCune-Albright Syndrome: qHTS. gsp mutant cells, cAMP HTRF, 30 min; control for the full effect not named in the record. Potency, µM (series often up to 76.9 µM), inactives show top-dose activation (cAMP increase), most hits filed as activators. actives 0.13% (n = 340,000); active = well fitted activation curve with a large enough effect; inconclusive = small, poorly fitted or top-dose-only effect, or another doubt; inactive = no such curve, though single readings can be large or run the other way; cell line not stated here;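 also: phosphodiesterase inhibitor Ro 20-1724 added with compounds to block cAMP breakdown; potency is read from the fitted curve at half-maximal effect; nearly all actives have a fitted effect of over 60% in size; about a fifth of the inactives were tested at one dose only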
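Cells in DMEM/10% FBS with G418 were pretreated with compounds in DMSO plus […] (300 uM stock) for 30 min at 37C. cAMP was measured by HTRF (cAMP-d2 plus anti-cAMP antibody-K) after 30 min at room temperature.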
D2 PAM: Beta-Arrestin HTS for Positive Allosteric Modulators of the Human D2 Dopamine Receptor: Potentiators | D(2) dopamine receptor (Homo sapiens), P14416 | DiscoveRx D2 beta-arrestin cells, luminescence, 90 min; 100% = 57 uM dopamine signal | potentiation, % (no concentration beside the values) | actives 0.23% (n = 360,000); active = potentiation of 50% or more; inconclusive = 30% to 50%; inactive = 30% or less;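 also: compound concentration not given in the record; tested on top of an EC20 dose of dopamine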
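PathHunter D2 cells, attached overnight at 37 deg C, received compound in DMSO plus dopamine at EC20 (50 nM final) for 90 min at 37 deg C. Beta-arrestin recruitment was read as luminescence after 1 h with detection reagent at ambient temperature.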
Active calls of the source: *; u = inconclusive; x = no result given; [ ] = another dose, or the depositor's remark.

| no. | mol | CtBP-E1A blk | gsp agonist | D2 PAM | D2 agonist | Six1-Eya2 inh | gsp antagonist |
| --- | --- | --- | --- | --- | --- | --- | --- |
| 1 | CCOC(=O)N1CCN(C(=O)CSc2ncnc3sccc23)CC1 | 9 | 16%[15.4 µM] | -67 | -2.9 | -2 | 12% |
| 2 | CC#CC(=O)N1CCC(Oc2cccc(C(=O)NCc3ccccn3)c2)CC1 | 6 | 22% | 25 | 9.0 | -1 | 11% |
| 3 | Cc1ccc(OCC(=O)N2CC(C)CC(C)C2)c([N+](=O)[O-])n1 (centres undefined) | 2 | -28% | -5 | -2.8 | 2 | 7% |
| 4 | CCCCc1cc(=O)oc2cc(OCc3nn[nH]n3)c(Cl)cc12 | -1 | 21% | 1 | -3.6 | -10 | -11%[15.4 µM] |
| 5 | O=C(C1=C[C@H](c2ccc(Br)cc2)C[C@H](OCCCCO)O1)N1CCN(Cc2ccccc2)CC1 | 0 | x | 8 | 8.3 | 16 | -3% |
| 6 | O=C(O)c1ccccc1-c1nc(-c2ccccc2)c(-c2ccccc2)[nH]1 | 1 | 1%[15.4 µM] | 2 | -5.5 | -5 | -13% |
| 7 | COc1cc(NC(=O)C2CC(=O)N(Cc3ccco3)C2)cc(OC)c1 (centres undefined) | -3 | -3%[15.4 µM] | -4 | -3.3 | -22 | 6% |
| 8 | CCOc1cc(/C=N/NC(=O)COc2ccc(C)cc2)ccc1OC(=O)c1cccs1 | 10 | -45%[inhibitor] | 1 | -0.6 | -10 | -3% |
| 9 | CC(C)(C)OC(=O)C[C@@H]1C/C=C\C[C@H](CC(=O)NCCO)C(=O)NC[C@H](c2ccccc2)OC1=O | x | -11% | -8 | -0.3 | 4 | -1% |
| 10 | Cc1ccc(CS(=O)Cc2ccc(C(=O)N3CCN(c4cccc(C)c4C)CC3)o2)cc1 (centres undefined) | 2 | -47%[inhibitor] | -5 | 5.0 | -4 | x |
| 11 | CCOc1ccc(CN2CCNC(=O)C2CC(=O)N(C)C2CCCCC2)cc1 (centres undefined) | -5 | -5% | -11 | -2.8 | 1 | 4% |
| 12 | CCOc1ccccc1C1CC(=O)Nc2cc(C)c(C)cc21 (centres undefined) | x | u | 18 | 4.4 | 1 | 3% |
| 13 | CCCN1CCN(CCCNC(=O)c2cc3c(=O)[nH]c4ccccc4c3s2)CC1 | x | u | 5 | -1.4 | -27 | 5% |
| 14 | COc1cc2c(=O)n(CCCC(=O)NCC3CCCO3)c(=O)n(CC(=O)c3ccc(F)cc3)c2cc1OC (centres undefined) | x | 14% | 6 | 2.4 | -2 | -17% |
| 15 | CC(C)CCn1cnc2c([nH]c3cccc(Cl)c32)c1=O | 3 | 29% | -3 | -1.9 | 0 | 6% |
| 16 | COc1ccc2c(c1)C(SCC(=O)NCCc1ccc(Cl)cc1)CC(C)(C)O2 (centres undefined) | -9 | -17% | -5 | 3.4 | -17 | u |
| 17 | CNC(=O)c1ccc(CN(C)CC(=O)Nc2ccccc2C(=O)NC2CC2)cc1 | -2 | -14% | -10 | 0.7 | 0 | 8% |
| 18 | COCC(C)n1c(C)cc(C(=O)CSc2cc(C)c3ccccc3n2)c1C (centres undefined) | -7 | -37%[inhibitor] | -10 | 2.6 | u | -28% |
| 19 | Cc1cc(C)n2nc(SCC(=O)N(C(C)C)C(C)C)nc2n1 | 8 | 20% | 4 | -1.5 | 0 | 6% |
| 20 | Cc1cccn2c(=O)nc(SCC(=O)NCc3ccc(F)cc3)nc12 | 5 | 13%[15.4 µM] | 11 | -1.2 | 2 | 12% |
| 21 | C/C(=N\NC(=O)c1cccnc1)c1cc2ccccc2o1 | -6 | -35%[inhibitor] | -7 | -3.7 | -7 | 4% |
| 22 | CCO[C@@H]1OC(C(=O)NC2CC2)=C[C@H](C)[C@H]1CCCO | 7 | x | -6 | -0.8 | 0 | 13% |
| 23 | CC(=O)N1CCc2ccc([N+](=O)[O-])cc21 | 3 | -2% | -19 | -6.0 | -2 | -4% |
| 24 | CC(NC(=O)c1csc2ccccc12)C1CCCO1 (centres undefined) | 6 | 8% | -4 | -1.7 | 3 | 5% |
| 25 | COC(=O)c1ccccc1NC(=O)c1cccc(NC(=O)C(C)C)c1 | x | 0% | -4 | -7.2 | -3 | u |
| 26 | COc1cc(CN(C)c2ccc(S(=O)(=O)N3CCCC3)cn2)ccc1OC(F)F | 6 | 9%[15.4 µM] | -30 | -1.5 | 24 | -9% |
| 27 | O=C1C2CC(O)CN2C(=S)N1Cc1ccccc1 (centres undefined) | 0 | 1%[15.4 µM] | -4 | -6.2 | -16 | 6% |
| 28 | COc1ccc(-n2c(C(C)(C)C)csc2=Nc2c(C)n(C)n(-c3ccccc3)c2=O)cc1 | 11 | 12% | -1 | -2.0 | 8 | 11% |
| 29 | CC(C)C(=O)N1CCCCCCN1C(=O)C(C)C | -15 | 41% | -12 | -5.7 | 2 | x |
| 30 | Cc1ccc(CN2CCSc3sccc3C2=O)cc1 | 0 | -43%[inhibitor] | -7 | 3.5 | 10 | -1% |
| 31 | O=C(NCCc1c[nH]c2ccccc12)C1CCCN(S(=O)(=O)c2ccccc2)C1 (centres undefined) | -11 | -10% | -2 | -3.6 | -11 | -18% |
| 32 | CSc1ccc(/C=N/NC(=O)c2cccc(O)c2)cc1 | -2 | 12% | -19 | -0.6 | -12 | 0% |
| 33 | CC(C)(C)c1ccc(C(=O)Nc2ccc(NC(=O)C(=O)O)cc2)o1 | 9 | -87%[inhibitor] | -9 | 3.2 | -1 | 9% |
| 34 | CC(C)NC(=O)/C(=C/c1cn(-c2ccccc2)nc1-c1cccc([N+](=O)[O-])c1)NC(=O)c1ccccc1 | 4 | -6%[15.4 µM] | -5 | -2.6 | 4 | 8% |
| 35 | COc1cc(OC)c(/C=N/NC(=O)c2ccc(NC(C)=O)cc2)cc1Br | 1 | -13%[15.4 µM] | -12 | -1.5 | 2 | 8% |
| 36 | O=C(NCCCN1CCOCC1)c1ccc(Cl)s1 | -9 | 1% | -13 | -0.6 | 2 | 13% |
| 37 | Cc1csc(C2=C(O)CN(CCc3ccccc3)C2=N)n1 | 4 | -41%[inhibitor] | -10 | -3.4 | 0 | 21% |
| 38 | COc1ccc(Cc2c(-c3ccccc3)nc3cc(C)c(Br)c(C)n23)c(C)c1 | 1 | x | -7 | -4.9 | -2 | x |
| 39 | CCCCCC(=O)Nc1ccc(C(=O)COC(=O)Cn2cnc3c2c(=O)n(C)c(=O)n3C)cc1 | -5 | 14%[15.4 µM] | -19 | -4.7 | 7 | 1% |
| 40 | CCOC(=O)C1=C(O)/C(=C/c2ccc(OCC(=O)O)c(OCC)c2)SC1=Nc1ccccc1 | 0 | 8%[15.4 µM] | -6 | -5.4 | -17 | -23% |
| 41 | CCCCSc1oc(-c2ccco2)nc1S(=O)(=O)c1ccccc1 | 8 | 9% | 0 | 5.7 | -3 | u |
| 42 | COc1cc2c(cc1OC)CN(c1ccc([N+](=O)[O-])cc1Cl)CC2 | u | 13% | -2 | -0.1 | u | -9% |
| 43 | O=C(CO/N=C/c1ccccc1OC(F)F)NC1CCCC1 | 9 | -6%[15.4 µM] | -9 | -0.8 | 3 | -1% |
| 44 | CCn1c(CCCNC(=O)c2cccs2)nc2ccccc21 | 0 | -35%[inhibitor] | -13 | -2.3 | 5 | 1% |
| 45 | Cc1cccc(-c2cc(NCCc3cccnc3)n3nccc3n2)c1 | 2 | x | -6 | -4.6 | 4 | x |
| 46 | Cc1cccc(-n2cnc3cc([N+](=O)[O-])ccc32)c1 | 6 | -1%[15.4 µM] | 6 | -1.3 | -10 | -5% |
| 47 | Cc1cc(C)cc(C(=O)N2CCC3(CC2)NCCc2[nH]cnc23)c1 | x | 5% | -11 | 0.4 | 5 | 11% |
| 48 | COc1ccc(C(=O)COC(=O)c2cccnc2Cl)c(OC)c1 | -4 | 16%[15.4 µM] | -2 | -4.6 | -11 | 0% |
| 49 | CS(=O)(=O)Nc1ccc(S(=O)(=O)Nc2nccs2)cc1 | 3 | -26% | -6 | 0.2 | 2 | 10% |
| 50 | O=C(CN1CCc2ccccc21)NC(=O)NCc1ccco1 | -5 | 3% | -13 | -2.6 | -6 | 5% |
| 51 | COc1ccc(NC(=O)CSc2nc(O)cc(=O)n2-c2ccccc2)cc1 | -3 | -25% | 1 | -2.8 | 0 | 0% |
| 52 | O=C(NC1CCCCCC1)c1c2c(nc3ccccc13)CCN(Cc1ccccc1)C2 | 0 | -31%[inhibitor] | -13 | -4.9 | -13 | 3% |
| 53 | CN1CCN(/C=N/c2c(C#N)cnn2Cc2ccccc2)CC1 | 4 | -45%[inhibitor] | -15 | -4.3 | -3 | -10% |
| 54 | O=C(CSc1nnc(-c2ccncc2)n1-c1ccc(Cl)cc1)N1CCOCC1 | 5 | -49%[inhibitor] | -3 | 0.1 | 2 | 0% |
| 55 | Cc1ccc(S(=O)(=O)N(CC#N)CC#N)cc1 | 5 | -4%[15.4 µM] | -6 | -4.1 | 0 | -2% |
| 56 | Oc1oc(-c2ccccc2Br)nc1/C=N/c1ccccn1 | x | -6% | -1 | 5.2 | 1 | -13% |
| 57 | COC(=O)c1nn(-c2ccccc2)c(Sc2ccc(OC)cc2)c1/C=N/O | -4 | 15% | 4 | -2.7 | 0 | 0% |
| 58 | Cc1cc(O)c(C=Nc2ccc(Cl)cn2)c(=O)o1 | 0 | 23% | -9 | -5.5 | 0 | 0% |
| 59 | Cc1cccc(NC(=O)CSc2nnc(CCC(=O)Nc3ccc(C)c(Cl)c3)n2C)c1 | -6 | 9% | 4 | -2.1 | -1 | 1% |
| 60 | COc1ccc(-c2c(-c3cc(OC)c(OC)c(OC)c3)noc2C)cn1 | 7 | 8% | 2 | -4.7 | 0 | 13% |
| 61 | CC(C)c1ccc(NC(=O)COC(=O)c2c[nH]c(=O)[nH]c2=O)cc1 | 0 | -12% | 9 | -3.4 | 10 | 10% |
